Bead autofluor: flagged as autofluorescent in microsphere protease counterscreen; compound autofluorescence counterscreen, microsphere flow cytometry; active compounds read high; fluorescence intensity (test concentration not listed); 3.1% of 360,000 active;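 active = at least 3 SD above the mean of all compounds, about 16000 in these data; inconclusive = too few beads counted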;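 also: 100 nL of 1 mM stock went into each well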
Sa ugtP lethal: growth inhibition of ugtP-null S. aureus, primary screen, RN4220 ugtP deletion, OD600; 0.54% of 330,000 active; AID 1259309, 2017; growth inhibition, % (concentration not given with the values); 16 h; some inactives read as strong as hits;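 active = z-score under -3 and OD600 up to 0.15 on both plates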;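 also: plate controls were untreated wells for no effect and antibiotic for full effect; wells of about 80 µL received 100 nL stock; the first replicate is given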
Mtb hypoxia inh: PubChem AID 1159583. M. tuberculosis hypoxia-regulated fluorescent reporter, fluorescence. fluorescence inhibition, % (test concentration not listed). 0.1% of 300,000 active;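 active = 35 to 45% if threefold the growth effect, above 45% if 1.5-fold the growth effect; inactive = the rest, general growth blockers included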;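 also: wells of about 50 µL received 100 nL stock; 0% = vehicle wells and 100% = reference inhibitor wells; whole bacteria with a GFP reporter of the hypoxia response; strong numbers were not always called active; many hits fall short of the cut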
Sa RN4220 lethal: growth inhibition of S. aureus RN4220, primary screen, OD600. 16 h. inhibition, % (test concentration not listed). 0.33% of 330,000 active;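 active = z-score of -3 or lower and OD600 up to 0.18 on both plates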;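 also: plate controls were untreated cells for no effect and reference antibiotic for full effect; stock transfer was 100 nL into about 80 µL; one replicate is shown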
PrP 5UTR inh: inhibition of PrP 5' UTR reporter expression; cell-based PrP 5' UTR mRNA reporter, plate reader; 0.35% of 340,000 active; AID 488862, 2010; inhibition, % (no concentration beside the values);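 active = every replicate at 50% or more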;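 also: 0 = median of the neutral control wells; tested in H4 reporter cells; numbers are from one replicate; inactives centre near -14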
BJeLR lethal: MLPCN primary cell-based screen for lethality selective to Ras in HRASV12 cells; BJeLR (HRASV12) viability, CellTiter-Glo ATP luminescence, 48 h; reference of the scale not given here; inhibition, % (test concentration not listed); 0.17% of 300,000 active; AID 1554, 2009;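 active = replicate mean above 50%; inconclusive = above 50% but judged a plate artefact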;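 also: 50 nL library stock added to about 25 µL; numbers are from one replicate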
Mtb hypoxia inh growth: further read-out of Mtb hypoxia inh, marked with its call; growth inhibition, %; measured here: M. tuberculosis growth (absorbance);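 0% = vehicle and 100% = reference antibiotic; read after six days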
Active calls of the source: *; ? = inconclusive; / = not tested or not shown.

SMILES	Bead autofluor	Sa ugtP lethal	Mtb hypoxia inh	Mtb hypoxia inh growth	Sa RN4220 lethal	PrP 5UTR inh	BJeLR lethal
CCCn1c(=N)n(CC(O)c2ccco2)c2ccccc21 (stereo not given)	3582	1	-5	-1	0.9	0	-10
CCOc1ccc(Cl)cc1S(=O)(=O)N1CCC(C(=O)N2CCCC2)CC1	6531	0	6	0	5.4	-3	-1
CCn1ccnc1CN1CCCCC1C(=O)Nc1ccc(Oc2cccnc2)cc1 (stereo not given)	4081	-1	1	1	-2.7	-14	20
CCC1Oc2ccc(C)cc2N(CC(=O)N(Cc2cccnc2)Cc2cccc(F)c2)C1=O (stereo not given)	10641	2	5	12	2.9	3	-8
N/C(=N\OS(=O)(=O)c1ccc(Cl)cc1)c1ccncc1	4376	8	16	8	7.0	-16	-9
Cc1cccc(C=Nn2c(-c3cc(-c4ccccc4)n[nH]3)n[nH]c2=S)c1	/	-16	3	-1	9.1	/	/
CC(=O)N1CCN(c2ccc([N+](=O)[O-])cc2C#N)CC1	4132	-2	2	6	0.4	-13	-3
O=C(/C=C/c1ccc(-c2ccccc2)cc1)NCc1cccnc1	3965	-2	4	0	1.2	-32	-11
CCn1ccnc1C(O)c1cccc(OC)c1OC (stereo not given)	5633	9	-2	3	1.2	-3	-9
COC(=O)c1ccc(COc2cccc3c2OC(C)(C)C3)cc1	5378	12	4	4	3.1	-13	3
CC(C)Sc1nc2c(c(=O)[nH]c(=O)n2C)n1C	2449	4	/	/	-3.1	-9	1
CCCCNC(=O)CCCn1c(=O)c2ccccc2n(CC(=O)NCCC2=CCCCC2)c1=O	3606	-4	/	/	0.3	-10	4
CCCCN1CCNC1=S	3052	-5	-4	6	1.7	4	4
Cc1ccc(-c2nnc(Nc3ccc(CC(N)=O)cc3)c3ccccc23)cc1	9082	-9	23	13	4.7	-8	-1
CCOC(=O)c1c(C)n(Cc2ccccc2)c2ccc(OCC(O)CNC(C)(C)C)cc12 (stereo not given)	3630	-12	8	10	-1.7	-2	-10
NC1C(O)OC(CO)C(O)C1O (stereo not given)	/	6	10	4	5.8	/	/
C=CCN(C(=O)CNC(=O)c1ccco1)C(C(=O)NC1CCCCC1)c1ccc(F)cc1 (stereo not given)	3963	5	3	6	2.2	-23	-5
COc1ccc(CNCc2cccc(Cl)c2)cc1	2446	-6	0	-1	-4.3	-9	0
COc1cc2[nH]c(=O)n(Cc3ccccc3Cl)c(=O)c2cc1OC	3201	-9	2	-3	0.7	1	-3
COc1ccc(S(=O)(=O)N2CCCN(CCC(=O)Nc3cccc(C(F)(F)F)c3)CC2)cc1	3112	-5	/	/	-3.0	-13	/
CN1C(=S)SC(C)(NO)C1(C)C (stereo not given)	18153*	9	1	4	-0.2	3	5
COC/C=C1\CN2C3C[C@@H]1[C@H]1COC4=Nc5cc(OC)c(OC)c(OC)c5[C@@]43C[C@@H]12	5652	-14	/	/	6.0	-9	-2
CCc1nc(SCC(=O)N2CCC(C)CC2)c2c(=O)n(C)c(=O)n(C)c2n1	7174	-11	7	15	-5.1	-26	3
O=S(=O)(Nc1ccncc1)c1ccc(Cl)cc1	6770	-9	-16	-10	-5.7	-15	1
Cc1ccc(C(=O)N2C(=S)C(c3ccc(F)cc3)=NC23CCN(C)CC3)cc1	2474	4	6	8	5.1	-23	-2
Clc1ccc(-c2csc(N/N=C/c3ccc4c(c3)OCO4)n2)cc1	2375	/	/	/	/	-17	2
Cc1cc(C)nc(NC2=N[C@@H]3CCCC[C@H]3N2C(=O)Nc2cc(Cl)cc(Cl)c2)n1	5180	3	10	4	5.4	-12	/
CCOC(=O)C1CCN(C(=O)COC(=O)c2nn(C)c(=O)c3ccccc23)CC1	4433	-2	-4	0	-1.2	14	2
O=C(CSCc1ccc(Br)cc1)Nc1ccccc1C(=O)N1CCOCC1	5739	2	2	1	0.8	-4	2
COc1nc(Nc2ccc([N+](=O)[O-])cc2)nc(NC2CCCCC2)n1	3724	-19	-3	2	-7.0	-27	-1

Looked up one by one from the entries so far, 6 records:
SMILES	Bead autofluor	Sa ugtP lethal	Mtb hypoxia inh	Mtb hypoxia inh growth	Sa RN4220 lethal	PrP 5UTR inh	BJeLR lethal
Cc1cc(C)nc(NC2=N[C@@H]3CCCC[C@H]3N2C(=O)Nc2cc(Cl)cc(Cl)c2)n1	5180	3	10	4	5.4	-12	/
CCc1nc(SCC(=O)N2CCC(C)CC2)c2c(=O)n(C)c(=O)n(C)c2n1	7174	-11	7	15	-5.1	-26	3
COC/C=C1\CN2C3C[C@@H]1[C@H]1COC4=Nc5cc(OC)c(OC)c(OC)c5[C@@]43C[C@@H]12	5652	-14	/	/	6.0	-9	-2
Cc1ccc(C(=O)N2C(=S)C(c3ccc(F)cc3)=NC23CCN(C)CC3)cc1	2474	4	6	8	5.1	-23	-2
CCOC(=O)C1CCN(C(=O)COC(=O)c2nn(C)c(=O)c3ccccc23)CC1	4433	-2	-4	0	-1.2	14	2
O=C(CSCc1ccc(Br)cc1)Nc1ccccc1C(=O)N1CCOCC1	5739	2	2	1	0.8	-4	2

Next part.
SMILES	Bead autofluor	Sa ugtP lethal	Mtb hypoxia inh	Mtb hypoxia inh growth	Sa RN4220 lethal	PrP 5UTR inh	BJeLR lethal
CCC(C)NC(=S)Nc1ccc(F)cc1 (stereo not given)	5748	6	-9	-3	4.7	-10	-3
CS(=O)(=O)N1CCC(C(=O)NCc2ccc(Cl)cc2)CC1	4306	8	0	8	0.9	-27	20
CC(C)N(C(=O)[C@H]1CC(CC(=O)NC(C)(C)C)C(=O)N2CCc3c([nH]c4ccccc34)[C@]12C)C(C)C (stereo not given in full)	2987	5	2	-2	-0.7	-14	/
CCCS(=O)(=O)N1CCC(C(=O)NCc2ccc3c(c2)OCO3)CC1	4660	8	3	8	-1.3	-1	7
N#CC(C(=O)C12CC3CC(CC(C3)C1)C2)c1nc2ccccc2[nH]1 (stereo not given)	2522	-13	2	9	-5.7	-27	7
Cc1ccc(C(=O)COC(=O)CNC(=O)c2cccs2)cc1	4252	3	/	/	2.3	-13	4
CN1CC(=O)N(CC(=O)Nc2ccc(OCc3ccccc3)cc2)C1=O	?	8	10	9	2.7	-9	/
O=C(CSc1nnc(-c2ccco2)o1)Nc1ccccc1Cl	5263	4	9	0	3.4	-16	7
CCCCCCCCCCn1c2c(c(=N)c3c1CCC3)CCC2	4232	100*	13	20	100*	5	56*
O=C(Cn1cnc2c(cnn2-c2ccc(F)cc2)c1=O)N1CCN(c2ccccc2)CC1	2594	-7	6	11	-6.7	-19	2
CC1(C)C/C(=N\NC(=S)Nc2ccccc2F)c2cc(O)ccc2O1	4219	/	/	/	/	-1	18
COc1cccc(CNCCc2ccc(F)cc2)c1	3310	1	-8	12	1.9	-12	2
Cc1ccc(OCC(=O)NNC(=O)CSc2nnc(-c3ccc(C)cc3)n2C)cc1	2069	2	-2	-4	1.3	-27	9
O=C(/C=C/c1cccs1)N1CCN(Cc2ccc3c(c2)OCO3)CC1	1998	8	/	/	2.9	-21	-11
C=C(Br)CN1C(Cc2ccccc2)C(O)[C@@]23C=CC(CC2S1(=O)=O)O3 (stereo not given in full)	/	6	-16	7	10	/	/
CCN(C(=O)CSc1ncccc1C(=O)Oc1cccc([N+](=O)[O-])c1)c1cccc(C)c1	2131	-2	5	22	0.5	-37	-2
Cc1ccc(NC(=O)CSCC(=O)Nc2cc(Cl)ccc2N2CCN(C)CC2)cc1	4903	-3	12	3	2.2	-12	-1
CCN1C(=O)C2C(c3ccc(OC)cc3)N3C(=O)CN(CC4CC4)C(=O)[C@@]3(C)C2C1=O (stereo not given in full)	/	-5	-9	3	-0.2	/	/
CCO[C@@H]1OC(C(=O)NCc2nc3ccccc3[nH]2)=C[C@H](c2ccc(C(F)(F)F)cc2)[C@H]1CCCO	5877	/	/	/	/	-21	-15
CN(Cc1cn(-c2ccccc2)nc1-c1ccc2c(c1)OCO2)Cc1nccn1C	3338	-1	-9	12	-2.6	-7	10
Cc1[nH]oc(=O)c1N=Nc1ccc2[nH]c(=O)[nH]c2c1	3309	2	-3	2	3.0	-14	9
O=C(Nc1ccc(Cl)cc1)c1cc2nc(C3CC3)cc(C(F)(F)F)n2n1	11328	2	0	-5	1.2	-27	-11
CCOc1ccc(/C(O)=C2\C(=O)C(=O)N(CCN(C)C)C2c2cccc(OC)c2OC)cc1Cl (stereo not given)	4384	3	/	/	2.3	-3	3
CCn1c(C)cc(O)c(C(=O)Nc2cccc(Cl)c2)c1=O	4214	-5	-3	-3	-3.8	-28	-5
CN(C)c1ccc(N2[C@@H](CC(=O)O)c3cc(C(F)(F)F)ccc3S2(=O)=O)cc1	4094	/	/	/	/	-35	-1
Cc1cc(C)cc(NC(=O)CCC(=O)Nc2cc(C)on2)c1	9426	0	4	-9	1.6	4	-7
CCOC(=O)C(O)(CC(=O)Nc1cc(F)ccc1C)C(F)(F)F (stereo not given)	4174	-4	5	1	0.5	-6	-4
O=[N+]([O-])c1ccc(Cl)c(C=Nn2c(-c3ccncc3)n[nH]c2=S)c1	/	10	7	12	1.7	/	/
Nc1cc(-c2ccc(Cl)cc2)nn1S(=O)(=O)c1cccc2nsnc12	6273	17	16	4	-8.7	-9	-4
CCN(C(=O)COC(=O)c1ccc([N+](=O)[O-])o1)c1cccc2ccccc12	3066	17	11	1	12	-12	/
CCOC(=O)/C(N=Nc1ccc(Cl)cc1)=C(/O)c1ccc([N+](=O)[O-])cc1	3069	-5	1	2	2.3	-39	5
CC(C)CC(=O)NC(=S)Nc1ccccc1F	4171	77	15	28	-1.5	-16	-5
CC(C)CCN=Cc1c(O)n(-c2ccccc2)c(=O)c2ccccc12	22931*	-9	2	7	-1.9	-49	8
Cc1ccc(-c2ocnc2C(=O)Nc2ccccc2NC(=O)c2ccccn2)cc1	5443	6	5	-1	4.4	-16	3
COc1cccc(NC(=O)c2ccc3c(O)c(S(=O)(=O)c4ccccc4)c(=O)[nH]c3c2)c1	5110	-1	6	13	3.7	-19	-6
O=C(COc1cccc2ccccc12)NN=Cc1ccco1	/	-5	1	-5	2.4	/	/
COc1cccc(CN(C)CC2CCCN(CCc3ccc(Cl)cc3)C2)c1OC (stereo not given)	4776	15	10	5	1.5	-10	4
CCOc1ccc(-n2cc(-c3ccccc3)c3c(=S)nc[nH]c32)cc1	4419	11	6	2	2.4	6	-8
O=C(c1ccco1)N1CCN(Cc2cc(=O)c(OCc3c(F)cccc3Cl)co2)CC1	5722	2	-5	5	0.5	-3	-11
CCN(CC(=O)NCc1ccc(Cl)cc1)C(=O)c1cc(OC)cc(OC)c1	3583	18	4	9	-2.5	-33	4
CC(Cc1ccccc1)=NNC(=O)CNC(=O)c1ccccc1Cl	/	11	-4	-5	1.4	/	/
COC(=O)c1[nH]c(C)c(C(O)=C2C(=O)C(=O)N(CCN(C)C)C2c2ccccc2OC)c1C (stereo not given)	/	-4	9	0	5.0	/	/
O=C1CCCN1c1ncc(S(=O)(=O)c2ccc([N+](=O)[O-])cc2)s1	4523	75	1	21	72	-19	-2
O=C(CCl)N1CCN(CC(=O)N2CCCC2)CC1	3848	5	10	8	6.1	-13	5
CCOC(=O)Cc1csc(NC(=O)CSc2nc(C)cc(C)n2)n1	2957	6	10	10	2.0	-15	/
COc1cccc(C2NC(=O)c3sc(=S)n(-c4ccccc4)c3N2)c1 (stereo not given)	2814	-3	8	10	16	-8	-8
Cc1ccc(-n2nnnc2SCC(=O)N2CCc3ccccc3C2)c(C)c1	7579	12	5	3	-2.1	/	6
Cc1nn(C)c(C)c1NC(=S)Nc1ccc(S(=O)(=O)Nc2ncccn2)cc1	5428	10	6	11	2.6	-25	1
CC(NC(=O)c1nc[nH]c1C(=O)NCc1ccccc1)C(=O)OC(C)(C)C (stereo not given)	/	6	15	12	6.1	/	/
COc1ccc(Br)cc1CN(C)CC(=O)Nc1ccccc1Cl	2464	-3	-6	9	1.9	-26	2
Next section.
SMILES	Bead autofluor	Sa ugtP lethal	Mtb hypoxia inh	Mtb hypoxia inh growth	Sa RN4220 lethal	PrP 5UTR inh	BJeLR lethal
O=C(CN1CCCC1=O)NC1(C(F)(F)F)NC(=O)N(Cc2ccccc2)C1=O (stereo not given)	7859	-1	16	4	2.8	-11	-8
CC(C)=CCc1c(-c2ccc(O)cc2O)oc2cc3c(c(O)c2c1=O)C=CC(C)(C)O3	/	97*	/	/	96*	/	-14
N#Cc1ccc(NC(=O)COC(=O)c2cccnc2Cl)cc1	5193	9	1	-8	5.3	-7	/
O=C(NCC(=O)N1CCCC(C(F)(F)F)C1)c1ccc(Br)o1 (stereo not given)	5687	1	9	0	-0.3	-19	10

Screening results deposited in PubChem BioAssay by several laboratories.
